# From PubChem
# MLL AF4-AF9 inh: inhibitors of AF4 peptide binding to AF9, primary screen, biochemical, AlphaScreen, biotin-AF4 peptide, FLAG-AF9, single point; AID 651704, 2012; 0.47% of 350,000 active; inhibition, % at 10 µM;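 active = every replicate reaching a set inhibition limit, whatever the replicate mean, cut at about 25% in these data; inconclusive = mean inhibition reaches that limit but some replicates miss it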;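 also: 0% = plate neutral control median and 100% = total signal loss; the record names both 10 and 1 µM as test concentration; the first replicate is given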
# Target sequence (P42568 whole entry, looked up): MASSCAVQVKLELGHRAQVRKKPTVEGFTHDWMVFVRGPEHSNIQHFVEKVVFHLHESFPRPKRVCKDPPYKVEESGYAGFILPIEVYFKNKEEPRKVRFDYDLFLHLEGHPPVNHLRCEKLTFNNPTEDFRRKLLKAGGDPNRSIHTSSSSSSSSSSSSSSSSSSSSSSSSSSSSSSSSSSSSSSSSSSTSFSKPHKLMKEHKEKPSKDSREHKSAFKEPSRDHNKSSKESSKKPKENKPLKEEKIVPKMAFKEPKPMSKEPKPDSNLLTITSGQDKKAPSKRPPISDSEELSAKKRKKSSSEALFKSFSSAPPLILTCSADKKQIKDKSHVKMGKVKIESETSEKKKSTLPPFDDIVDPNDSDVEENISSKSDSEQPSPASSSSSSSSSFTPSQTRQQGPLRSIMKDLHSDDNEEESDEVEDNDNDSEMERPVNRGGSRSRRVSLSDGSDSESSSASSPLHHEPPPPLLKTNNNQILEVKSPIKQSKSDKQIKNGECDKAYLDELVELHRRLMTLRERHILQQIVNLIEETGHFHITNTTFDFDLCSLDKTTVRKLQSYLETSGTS
# The depositor's hits bear a star; ? = inconclusive; & = joins results of further samples. Only part of the results is shown. The share of hits here may be higher or lower than overall.
MLL AF4-AF9 inh | SMILES
1.5 | OC[C@@H]1[C@H](c2ccccc2)C2(CN(CCC(F)(F)F)C2)N1Cc1cccnc1
-2.2 | CCCC(O)C#Cc1cnc2c(c1)C(=O)N([C@H](C)CO)C[C@H](C)[C@H](CN(C)C)O2 (stereo not given in full)
-0.7 | C[C@@H](NC(=O)C[C@H]1CC[C@@H]2[C@H](COC[C@@H](O)CN2C(=O)Nc2cccc(F)c2)O1)c1ccccc1
-1.8 | C[C@@H]1CN([C@@H](C)CO)C(=O)c2cc(NC(=O)CCCCCC(=O)Nc3ccccc3N)ccc2O[C@H]1CN(C)S(=O)(=O)c1cn(C)cn1
0.2 | C[C@@H]1CN([C@@H](C)CO)C(=O)c2cc(NC(=O)Cc3cn(C)c4ccccc34)ccc2O[C@@H]1CN(C)S(=O)(=O)c1cn(C)cn1
? | COc1ccc(NC(=O)N(C)C[C@@H]2Oc3c(NS(=O)(=O)c4ccc(C)cc4)cccc3C(=O)N([C@H](C)CO)C[C@@H]2C)cc1
-1.0 | COc1ccc(-c2cnc3c(c2)C(=O)N([C@@H](C)CO)C[C@@H](C)[C@@H](CN(C)C(=O)Cc2ccccn2)O3)cc1
3.2 | COc1cc(C(=O)N2CCCCC2c2cc(C(=O)Nc3ccccc3Cl)no2)cc(OC)c1C (stereo not given)

# (continued)
MLL AF4-AF9 inh | SMILES
-2.6 | O=C(C[C@@H]1CC[C@H]2[C@@H](COC[C@@H](O)CN2C(=O)c2ccccc2F)O1)NCc1ccc(F)cc1
7.1 | C[C@H](CO)N1C[C@H](C)[C@H](CN(C)C)Oc2cc(C#CCC3CCCC3)ccc2S1(=O)=O
-11 | COCC#Cc1cnc2c(c1)C(=O)N([C@@H](C)CO)C[C@H](C)[C@H](CN(C)C(C)=O)O2
1.3 | O=C1NC[C@H](CCCCN2C[C@H](Cc3ccc(O)cc3)N(CCc3ccc(O)cc3)C(=O)C2=O)N(CCc2ccccc2)C1=O
-1.5 | COc1ccc(S(=O)(=O)N(C)C[C@H]2Oc3ccc(NS(=O)(=O)c4cccs4)cc3C(=O)N([C@H](C)CO)C[C@H]2C)cc1
1.2 | CCC(=O)N1C[C@H]2[C@@H](c3ccccc31)[C@@H](CO)N2Cc1cc(F)ccc1F
3.6 | CC(=O)N[C@H]1CC[C@@H](CCNC(=O)Nc2ccc(C(F)(F)F)cc2)O[C@H]1CO
6.4 | COc1ccc2c3c(n(C)c2c1)[C@H](CO)N(C(=O)c1ccncc1)CC31CN(CC2CC2)C1

# Among those listed so far, 2 contain a CF3 group.
MLL AF4-AF9 inh | SMILES
1.5 | OC[C@@H]1[C@H](c2ccccc2)C2(CN(CCC(F)(F)F)C2)N1Cc1cccnc1
3.6 | CC(=O)N[C@H]1CC[C@@H](CCNC(=O)Nc2ccc(C(F)(F)F)cc2)O[C@H]1CO

# Continuation:
MLL AF4-AF9 inh | SMILES
-0.8 | CO[C@@H](CN(C)S(=O)(=O)c1ccc(F)cc1)[C@H](C)CN(Cc1ccccc1Cl)[C@H](C)CO
-0.5 | COc1cc(OC)c(NC(=O)CC2SC(N)=NC2=O)cc1Cl (stereo not given)
7.4 | Cc1cc(C)nc(Nc2nc(C(N)Cc3ccc(C(F)(F)F)cc3)cs2)n1 (stereo not given)
-0.9&-9.6 | Cc1cccc(S(=O)(=O)N2C[C@@H]3N[C@H](C2)C3c2ccc(-c3ccccc3F)cc2)c1 (stereo not given in full)
-1.7 | COCC(=O)N(C)C[C@H]1Oc2ncc(/C=C/c3ccccc3)cc2C(=O)N([C@H](C)CO)C[C@@H]1C
-1.1 | CC(C)(C)OC(=O)N(CCc1ccccc1)Cc1cccc(OCc2cccc(NC(=O)c3ccccc3)c2)c1
-0.9&-5.1 | C[C@H](CO)N1C[C@H](C)[C@@H](CN(C)C(=O)Nc2cccc(C(F)(F)F)c2)OCc2cn(nn2)CCCC1=O
-1.7 | C[C@H](O)C#Cc1ccc2c(c1)O[C@@H](CN(C)Cc1ccc(-c3ccccc3)cc1)[C@H](C)CN([C@H](C)CO)S2(=O)=O

# Continuation.
MLL AF4-AF9 inh | SMILES
-18 | C[C@@H]1CN([C@H](C)CO)C(=O)c2cc(C#Cc3ccncc3)cnc2O[C@@H]1CN(C)C(=O)c1ccccc1F
5.8 | C[C@H](CO)N1C[C@H](C)[C@@H](CN(C)Cc2ccc(C(F)(F)F)cc2)Oc2c(NC(=O)Nc3ccccc3)cccc2C1=O
5.8 | C[C@@H]1CCCCO[C@@H](CN(C)C)[C@@H](C)CN([C@H](C)CO)C(=O)c2cc(NC(=O)CCCCCC(=O)Nc3ccccc3N)ccc2O1
0.7 | C[C@@H]1CN([C@@H](C)CO)C(=O)c2cc(NS(=O)(=O)c3cccs3)ccc2O[C@@H](C)CCCCO[C@@H]1CN(C)C(=O)c1ccccc1
0.7 | O=C(Nc1ccc2c(c1)OCO2)c1cc(C2CCCCN2C(=O)CCCc2ccccc2)on1 (stereo not given)
-8.3 | C[C@H](NC(=O)N(C)C[C@H]1OCc2ccccc2-c2ccccc2C(=O)N([C@@H](C)CO)C[C@H]1C)c1ccccc1
-5.5 | Cc1ccccc1-c1cnc2c(c1)C(=O)N([C@H](C)CO)C[C@H](C)[C@H](CN(C)C(=O)c1ccc(F)cc1)O2
0.9 | COc1ccc(CN2C(=O)c3ccccc3C2c2nnnn2-c2ccc3c(c2)OCCO3)cc1OC (stereo not given)

# Following part
MLL AF4-AF9 inh | SMILES
-5.4 | CCc1ccc([C@@H]2C[C@H]3[C@@H](CN2S(=O)(=O)c2ccc(C)cc2)C(=O)C[C@@H](c2ccc(Cl)cc2)N3S(=O)(=O)c2ccc(C)cc2)cc1
6.6 | C[C@@H]1CCCCO[C@H](CN(C)C)[C@H](C)CN([C@H](C)CO)C(=O)c2cc(NC(=O)Nc3ccc(C(F)(F)F)cc3)ccc2O1
-0.2 | O=C1c2ccccc2C(c2nnnn2-c2ccc3c(c2)OCCO3)N1Cc1cccnc1 (stereo not given)
4.2 | COC(=O)C[C@@H]1CC[C@H]2[C@H](COc3ccc(NC(=O)Nc4cc(C)cc(C)c4)cc3C(=O)N2C)O1
5.9 | Cc1noc(C)c1S(=O)(=O)Nc1ccc2c(c1)CC(=O)N([C@H](C)CO)C[C@@H](C)[C@@H](CN(C)Cc1ccc(-c3ccccc3)cc1)O2
3.7 | CC(C)NC(=O)NCC[C@H]1CC[C@H](NS(=O)(=O)c2ccccc2)[C@H](CO)O1
-11 | CN(C)CC(=O)N[C@H]1CC[C@H](CC(=O)NCCN2CCCCC2)O[C@@H]1CO
-1.3 | COc1ccccc1-c1cn(CC[C@@H]2CC[C@@H](NC(=O)C3CCC3)[C@H](CO)O2)nn1

# Sorted by SMILES length (low to high): part of the list above.
MLL AF4-AF9 inh | SMILES
-0.2 | O=C1c2ccccc2C(c2nnnn2-c2ccc3c(c2)OCCO3)N1Cc1cccnc1 (stereo not given)
-11 | CN(C)CC(=O)N[C@H]1CC[C@H](CC(=O)NCCN2CCCCC2)O[C@@H]1CO
0.9 | COc1ccc(CN2C(=O)c3ccccc3C2c2nnnn2-c2ccc3c(c2)OCCO3)cc1OC (stereo not given)
3.7 | CC(C)NC(=O)NCC[C@H]1CC[C@H](NS(=O)(=O)c2ccccc2)[C@H](CO)O1
4.2 | COC(=O)C[C@@H]1CC[C@H]2[C@H](COc3ccc(NC(=O)Nc4cc(C)cc(C)c4)cc3C(=O)N2C)O1
-5.5 | Cc1ccccc1-c1cnc2c(c1)C(=O)N([C@H](C)CO)C[C@H](C)[C@H](CN(C)C(=O)c1ccc(F)cc1)O2
6.6 | C[C@@H]1CCCCO[C@H](CN(C)C)[C@H](C)CN([C@H](C)CO)C(=O)c2cc(NC(=O)Nc3ccc(C(F)(F)F)cc3)ccc2O1

# The listing continues.
MLL AF4-AF9 inh | SMILES
2.2 | COCCN(C[C@@H]1N[C@@H](CO)[C@@H]1c1ccc(-c2ccc(F)cc2)cc1)C(C)=O
-3.7 | COc1ccc(-c2ccc(C(=O)Nc3cccc(C(F)(F)F)c3)c3occc23)c(C)c1
-0.2 | COc1ccccc1NC(=O)N1C[C@H]2[C@@H](c3ccccc31)[C@H](CO)N2C(C)=O
-0.9 | CC(C)NC(=O)N(C)C[C@@H]1Oc2c(NS(=O)(=O)c3ccc(F)cc3)cccc2C(=O)N([C@H](C)CO)C[C@H]1C
-4.1 | O=C(C[C@@H]1C[C@H]2c3cc(NC(=O)NC4CCCC4)ccc3O[C@H]2[C@H](CO)O1)NCc1ccccn1
0.5 | C[C@H]1CN([C@@H](C)CO)C(=O)Cc2cc(NC(=O)C3CC3)ccc2O[C@H]1CN(C)S(=O)(=O)c1ccc(Cl)cc1
-8.8 | COCC(=O)N(C)C[C@H]1Oc2ncc(C#CCC3CCCC3)cc2C(=O)N([C@@H](C)CO)C[C@H]1C
-2.9 | CC(C)COC(=O)N1CCCCC1c1cc(C(=O)NCc2ccc(F)cc2)no1 (stereo not given)

# The list goes on:
MLL AF4-AF9 inh | SMILES
-0.8 | C[C@@H]1CN([C@H](C)CO)C(=O)Cc2cc(NS(=O)(=O)c3ccc(Cl)cc3)ccc2O[C@@H]1CN(C)Cc1ccncc1
-2.2 | CC(=O)N(C)C[C@H]1Oc2cc(C#Cc3cccnc3)ccc2S(=O)(=O)N([C@@H](C)CO)C[C@H]1C
-0.6 | O=C(NCc1ccccc1)c1ccc(NC(=O)C2CCC2)cc1
0.2 | Cc1noc(C)c1S(=O)(=O)N(C)C[C@H]1OCCCC[C@H](C)Oc2ccc(NC(=O)Cc3ccccc3)cc2C(=O)N([C@H](C)CO)C[C@@H]1C
-1.8 | Cc1ccc(CNC(=O)OC2CC3CC2[C@H]2CCCCN2C3=O)cc1 (stereo not given in full)
-0.1 | CCOc1ccccc1CN1[C@@H](c2ccc(OC)cc2)CC(C(=O)OC)(C(=O)OC)[C@H]1c1ccccc1
3.4 | COc1ccc(S(=O)(=O)N2C[C@H](O)COC[C@H]3O[C@@H](CC(=O)N[C@H]4CCN(Cc5ccccc5)C4)CC[C@@H]32)cc1
1.3 | CNC[C@H]1OCCCC[C@@H](C)Oc2ccc(NS(=O)(=O)c3ccc(Cl)cc3)cc2C(=O)N([C@@H](C)CO)C[C@H]1C

# Next section:
MLL AF4-AF9 inh | SMILES
0.8 | CC(C)C(=O)Nc1ccc2c(c1)C(=O)N(C)[C@H]1CC[C@@H](CC(=O)Nc3ccccc3)O[C@H]1CO2
15 | COc1ccc(CN(C)C[C@H]2OCCCC[C@H](C)Oc3ccc(NC(=O)Nc4ccc5c(c4)OCO5)cc3C(=O)N([C@H](C)CO)C[C@@H]2C)cc1
4.6 | Cc1noc(C)c1NC(=O)Nc1ccc2c(c1)C(=O)N([C@H](C)CO)C[C@@H](C)[C@H](CN(C)S(=O)(=O)c1ccc(Cl)cc1)OCCCC[C@@H](C)O2
0.9 | COc1ccc(-c2cnc3c(c2)C(=O)N([C@H](C)CO)C[C@H](C)[C@H](CN(C)S(=O)(=O)c2ccccc2)O3)cc1
-17 | C[C@@H]1CN([C@H](C)CO)S(=O)(=O)c2ccc(C3=CCCC3)cc2O[C@H]1CN(C)Cc1ccccc1F
-9.1 | COc1ccc(NC(=O)Nc2ccc3c(c2)C(=O)N([C@@H](C)CO)C[C@H](C)[C@H](CN(C)C(=O)Nc2ccc(C(F)(F)F)cc2)O3)cc1
1.0 | O=C(C1CCCC1)N1CCCCN2[C@@H](CO)[C@@H](c3ccc(C#CC4CC4)cc3)[C@@H]2C1
4.4 | N#C[C@@H]1[C@H](c2ccccc2/C=C/c2ccccc2)[C@H](CO)N1S(=O)(=O)c1cccc(F)c1

# Carrying on:
MLL AF4-AF9 inh | SMILES
-1.3 | COc1ccc(NC(=O)N2CC(=O)N3[C@H](C2)[C@H](c2ccc(C4=CCCC4)cc2)[C@@H]3CO)cc1
0.9 | CCN1[C@@H]2Cn3c(ccc(C4=CCCC4)c3=O)[C@H]1[C@@H](C(=O)N[C@H](C)c1ccccc1)[C@@H]2CO
-4.7 | O=C(NCc1ccc(F)cc1)c1cc(C2CCCCN2S(=O)(=O)c2ccc(F)cc2F)on1 (stereo not given)
-1.6 | Cc1ccc(S(=O)(=O)Nc2ccc3c(c2)C(=O)N([C@H](C)CO)C[C@H](C)[C@H](CN(C)Cc2ccncc2)OCCCC[C@@H](C)O3)cc1
-12 | CCC(=O)Nc1ccc2c(c1)C(=O)N(C)C[C@@H](OC)[C@H](C)CN(Cc1ccccc1C(=O)O)[C@H](C)CO2
0.7 | O=C(NCC[C@H]1CC[C@@H](NS(=O)(=O)c2ccccc2)[C@@H](CO)O1)c1ccccc1F
0.7 | Brc1cccc(-c2nc3ccc(Br)cn3c2Cc2ccsc2)c1
-2.4 | O=C(C[C@@H]1CC[C@H](NS(=O)(=O)c2ccc(F)cc2)[C@@H](CO)O1)NCc1ccccc1F

# More records:
MLL AF4-AF9 inh | SMILES
0.5 | COc1ccc(CN(C)C[C@@H]2Oc3c(NC(=O)CCCCCC(=O)Nc4ccccc4N)cccc3C(=O)N([C@H](C)CO)C[C@H]2C)cc1
19 | CC(C)c1ccc(NC(=O)Nc2nc(C(N)C(C)C)cs2)cc1 (stereo not given)
-4.4 | Cc1noc(C)c1S(=O)(=O)N(C)C[C@@H]1Oc2c(NC(=O)c3cnccn3)cccc2C(=O)N([C@H](C)CO)C[C@@H]1C
-2.9 | C[C@@H]1CN([C@H](C)CO)C(=O)Cc2cc(NS(=O)(=O)c3cccs3)ccc2O[C@@H]1CN(C)S(=O)(=O)c1ccc(F)cc1
-7.0 | CC(C)C#Cc1cnc2c(c1)C(=O)N([C@@H](C)CO)C[C@@H](C)[C@@H](CN(C)C(=O)CC1CC1)O2
-5.4 | O=C(O)C[C@@H]1CC[C@H](NC(=O)c2ccccc2F)[C@@H](CO)O1
-1.2 | CCS(=O)(=O)Nc1ccc2c(c1)C(=O)N(C)C[C@H](OC)[C@H](C)CN(C(=O)CN(C)C)[C@@H](C)CO2
-3.9 | COc1ccccc1S(=O)(=O)N[C@@H]1C=C[C@@H](CC(=O)NCc2cc(F)cc(F)c2)O[C@@H]1CO
-1.1 | O=C(Nc1ccc2c(c1)[C@H]1C[C@@H](CC(=O)N3CCCCC3)O[C@@H](CO)[C@H]1O2)c1cccnc1
-7.0 | Cc1ccc(CNC(=O)/C=C/[C@H]2O[C@@H](n3cc(C)c(=O)[nH]c3=O)C[C@@H]2O)o1
